GLA inh pH 4.5 – alpha-galactosidase A (human) inhibition, pH 4.5. purified enzyme, 4-MU-alpha-Gal fluorescence, pH 4.5. P06280. AID 1467. activity change, negative = inhibition, % at 105 µM. 230,000 tested, under 10 active; inconclusive = small, poorly fitted or top-dose-only inhibition, or a rising curve; inactive = flat fitted curve, though single readings scatter; no compound was filed as active;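 note: 0% = full activity with enzyme and -100% = basal without enzyme; dose as in the result columns while the protocol names 77 µM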
miR-21 reporter – miR-21 reporter, rising signal; Potency, µM (top dose mostly 38.3 µM), without a hit: top-dose reporter change, positive = more light; 340,000 tested, under 10 active; HeLa miR-21 FLuc reporter, luciferase, 48 h; AID 2288; active = well fitted rising curve with a large enough effect; inconclusive = small, poorly fitted or top-dose-only effect; inactive = no such curve, though single readings can be large or run the other way;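 note: % of control where 0% means no effect; miR-21 action dims this reporter so a rising signal means less miR-21 action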
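Compounds were titrated across several concentrations (up to approximately 40 uM) and incubated 48 hours with HeLa miR-21-FLuc reporter cells (miR-21 target sequence downstream of FLuc, endogenous miR-21). Readout was firefly luciferase luminescence after lytic detection reagent.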
Rango release inh – inhibition of RanGTP-driven Rango-importin beta dissociation; Biochemical FRET Rango-importin beta, RanGTP-induced dissociation; Potency, µM (doses to about 46.1 µM), for the others: at the highest dose activity change, negative = inhibition; hit rate 0.071% among 340,000; active means falling FRET ratio curve, often poorly fitted, with flat reads before Ran was added; inconclusive means other falling curves, or compound fluorescence or quenching; inactive means flat or rising ratio curve;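 note: potency is the fitted concentration of half-maximal effect; % of control where 0% means no effect; nearly all actives have a fitted effect of over 45% in size; -100% = wells without RanGTP and RCC1; the record marks most hits as doubtful in a second field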
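Quantitative HTS using a FRET biosensor: 0.1 uM Rango, 0.25 uM importin beta, 0.6 uM Ran, 2 mM GTP, 0.2 uM RCC1 final, PBS with DTT, Tween-20 and BSA. Post-read taken 45 min after Ran addition.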
Rango complex inh – prevents formation of the Rango-importin beta complex; Potency, µM (top dose mostly 92.2 µM), inactives show top-dose inhibition of complex formation; Rango CFP/YFP FRET sensor + importin beta, 45 min; Q14974; hit rate 0.031% among 340,000; active = rising FRET ratio curve, often small or poorly fitted; inconclusive = mostly compound fluorescence or quenching in the first reads; inactive = flat curves in all reads;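 note: potency is the fitted concentration of half-maximal effect; 0% = DMSO wells and 100% = buffer wells lacking importin beta; nearly all actives have a fitted effect of over 15% in size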
Target sequence (Q14974 whole entry, looked up): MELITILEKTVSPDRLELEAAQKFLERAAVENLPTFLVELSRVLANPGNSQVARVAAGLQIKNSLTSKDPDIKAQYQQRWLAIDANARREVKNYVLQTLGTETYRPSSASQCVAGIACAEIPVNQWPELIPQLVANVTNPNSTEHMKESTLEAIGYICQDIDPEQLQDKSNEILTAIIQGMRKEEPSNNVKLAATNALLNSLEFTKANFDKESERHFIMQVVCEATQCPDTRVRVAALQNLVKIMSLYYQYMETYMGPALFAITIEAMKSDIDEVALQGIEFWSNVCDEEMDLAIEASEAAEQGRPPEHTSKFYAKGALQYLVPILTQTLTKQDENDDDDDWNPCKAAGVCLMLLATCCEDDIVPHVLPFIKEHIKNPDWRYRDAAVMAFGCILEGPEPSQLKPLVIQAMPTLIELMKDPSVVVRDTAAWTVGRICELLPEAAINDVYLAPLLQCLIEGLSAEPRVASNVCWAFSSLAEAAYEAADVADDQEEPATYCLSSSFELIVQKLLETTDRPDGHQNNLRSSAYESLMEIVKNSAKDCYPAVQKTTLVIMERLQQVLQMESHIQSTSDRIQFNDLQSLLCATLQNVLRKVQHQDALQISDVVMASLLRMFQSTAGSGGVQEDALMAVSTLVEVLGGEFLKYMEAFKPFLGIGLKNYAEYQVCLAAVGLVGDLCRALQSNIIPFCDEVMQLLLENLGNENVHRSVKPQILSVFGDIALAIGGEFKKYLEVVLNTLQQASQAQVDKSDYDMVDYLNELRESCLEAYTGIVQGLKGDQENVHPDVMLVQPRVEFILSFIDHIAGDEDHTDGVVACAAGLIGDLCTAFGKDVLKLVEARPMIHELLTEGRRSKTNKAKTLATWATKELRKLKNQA
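FRET biosensor (snurportin 1 IBB flanked by EYFP and cerulean), 50 nM, with compound 5 min, then 0.125 microM importin beta in PBS, 1 mM DTT, 0.02% Tween-20, 0.1% BSA. CFP/YFP ratio read after 45 min at room temperature; pre-read flags interference.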
Active calls of the source: *; & = joins results of further samples; [ ] = dose if it differs, or a comment.

How did CCOc1c(Br)cc(C2NC(=O)CCC2[N+](=O)[O-])cc1OC (stereo unspecified) do in these assays?
miR-21 reporter: 5%; Rango release inh: -15%; Rango complex inh: -4.6%

What do the screens show for `CCOc1ccccc1C(=O)N[C@H](C(=O)OCc1csc(CC(=O)Nc2ccc(C)cc2)n1)C(C)C`?
Rango release inh: -5%; Rango complex inh: -0.7%

How did Cc1ccc(Oc2nc(-c3cccnc3)nc3ccccc23)c([N+](=O)[O-])n1 do in these assays?
GLA inh pH 4.5: -8; miR-21 reporter: 2%; Rango release inh: 20%; Rango complex inh: inconclusive

What do the screens show for `O=C(O)c1ccc(N2C(=O)CC(SC(=Nc3ccccc3)Nc3ccccc3)C2=O)cc1` (stereo unspecified)?
GLA inh pH 4.5: -5; miR-21 reporter: 0%; Rango release inh: -8%; Rango complex inh: 3.7%

What do the screens show for `COc1ccc(C(=O)N(CN2CCCC2=O)c2ccccc2OC)cc1OC`?
GLA inh pH 4.5: -5; miR-21 reporter: 0%; Rango release inh: -2%; Rango complex inh: -1.6%

What do the screens show for `Cc1[nH]c2ccc(-c3n[nH]c(=S)n3-c3ccccc3)cc2c1C`?
GLA inh pH 4.5: -6; miR-21 reporter: -12%; Rango release inh: -8%; Rango complex inh: inconclusive

How did COc1ccc(C(C#N)N2N=C(C)CC2c2ccccc2)cc1 (stereo unspecified) do in these assays?
miR-21 reporter: -7%; Rango release inh: -9%; Rango complex inh: -2.7%

Results for C=CCSc1nnc(NC(=O)CN2C(=O)NC3(CCCC3)C2=O)s1 ?
miR-21 reporter: 0%; Rango release inh: -4%; Rango complex inh: 1.1%

Results for CCN(CC)c1ccc(NC(=O)COC(=O)CSc2ccc(Br)cc2C)cc1 ?
GLA inh pH 4.5: 1; miR-21 reporter: 1%; Rango release inh: 21%; Rango complex inh: -3.2%

Results for Cc1cc(NC(=O)CCSc2nc(-c3ccco3)cc(C(F)(F)F)n2)no1 ?
GLA inh pH 4.5: -9; miR-21 reporter: -1%; Rango release inh: -4%; Rango complex inh: -2.3%

How did Cc1cc(COc2ccccc2O)on1 do in these assays?
GLA inh pH 4.5: -12; miR-21 reporter: -4%; Rango release inh: 21%; Rango complex inh: 0.1%

What do the screens show for `Cc1nc(N2CCN(Cc3ccccc3)CC2)[nH]c(=O)c1C`?
GLA inh pH 4.5: 2; miR-21 reporter: -1%; Rango release inh: -5%; Rango complex inh: 0.9%

Results for Cn1nc(C(=O)N2CCN(S(=O)(=O)c3ccccc3)CC2)c2ccccc2c1=O ?
GLA inh pH 4.5: 5; miR-21 reporter: -5%; Rango release inh: 3%; Rango complex inh: -0.5%

How did O=C(CN1CCN(S(=O)(=O)c2ccc(Br)cc2)CC1)N/N=C/c1cc([N+](=O)[O-])ccc1Cl do in these assays?
GLA inh pH 4.5: -11; miR-21 reporter: 1%; Rango release inh: -20%; Rango complex inh: 2.6%

Results for CC(C)(C)c1ccc(-n2ncc3c2CCCC3NC(=O)CN2CCOC2=O)cc1 (stereo unspecified) ?
miR-21 reporter: 6%; Rango release inh: -2%; Rango complex inh: -2.5%

Results for COc1ccc(NC(=S)N2CCN(Cc3cccc(F)c3)CC2)c(OC)c1 ?
GLA inh pH 4.5: 8; miR-21 reporter: -4%; Rango release inh: 0%; Rango complex inh: -0.2%

Results for COc1ccc(C(=O)NC2CCN(C(=S)Nc3cc(C)ccc3C)CC2)cc1 ?
GLA inh pH 4.5: -3; miR-21 reporter: -3%; Rango release inh: 2%; Rango complex inh: 0.4%

What do the screens show for `Nc1nc(Nc2cccc(Cl)c2)n[nH]1`?
GLA inh pH 4.5: 0; miR-21 reporter: -6%; Rango release inh: 7%; Rango complex inh: -0.5%

How did CCOC(=O)C(NC(=O)Nc1ccc(F)cc1F)(Oc1ccccc1)C(F)(F)F (stereo unspecified) do in these assays?
GLA inh pH 4.5: -6; miR-21 reporter: 7%; Rango release inh: -6%; Rango complex inh: 0.5%

Results for Cn1c(=O)[nH]c(=O)c2c1nc(NC1CCCCC1)n2CCO ?
GLA inh pH 4.5: -1; miR-21 reporter: -5%; Rango release inh: 32%; Rango complex inh: 0.0%

Results for CCc1ccc(C(=O)NCc2cccs2)s1 ?
GLA inh pH 4.5: 1; miR-21 reporter: -57%; Rango release inh: -2%; Rango complex inh: 3.2%

Results for CCNC(=O)NCCc1c[nH]c2ccc(Cl)cc12 ?
GLA inh pH 4.5: 7; miR-21 reporter: -17%; Rango release inh: -5%; Rango complex inh: 3.3%

How did N#Cc1c(N)nc2c3c(sc(=N)c2c1N)NC(=O)CC3c1ccccc1 (stereo unspecified) do in these assays?
GLA inh pH 4.5: 5; miR-21 reporter: -3%; Rango release inh: inconclusive; Rango complex inh: inconclusive

Results for COc1ccccc1NC(=O)COC(=O)C1CC(=O)N(c2ccc3c(c2)OCCO3)C1 (stereo unspecified) ?
Rango release inh: 19%; Rango complex inh: 3.0%

How did COc1ccc(Cc2nnc(Nc3ccccc3OC)[nH]c2=O)cc1 do in these assays?
GLA inh pH 4.5: 5; miR-21 reporter: 3%; Rango release inh: 3%; Rango complex inh: 0.2%

What do the screens show for `CCC1CN(C(=O)N2CCC(C(=O)NCc3ccc(F)cc3)CC2)c2ccccc2O1` (stereo unspecified)?
miR-21 reporter: 11%; Rango release inh: 15%; Rango complex inh: -8.3%

Results for O=C(O)c1ccc(NS(=O)(=O)c2ccc3c(c2)OCCCO3)cc1 ?
GLA inh pH 4.5: 11; miR-21 reporter: 1%; Rango release inh: -6%; Rango complex inh: -1.4%

What do the screens show for `O=C(CSc1n[nH]c(=O)n1C1CC1)NCc1ccccc1Cl`?
GLA inh pH 4.5: 6; miR-21 reporter: 1%; Rango release inh: 10%; Rango complex inh: -1.3%

How did COc1cc(/C=N/NC(=O)CCn2nc(C)cc2C)ccc1O do in these assays?
GLA inh pH 4.5: -15; miR-21 reporter: 3%; Rango release inh: 4%; Rango complex inh: 0.0%

How did COc1cc(NC(=O)c2ccc(N3CC4CC(C3)c3cccc(=O)n3C4)c(NC(=O)c3ccncc3)c2)cc(OC)c1OC (stereo unspecified) do in these assays?
miR-21 reporter: 4%; Rango release inh: 6%; Rango complex inh: 4.1%

An excerpt from above in order of formula weight, ascending:
How did COc1cc(/C=N/NC(=O)CCn2nc(C)cc2C)ccc1O do in these assays?
GLA inh pH 4.5: -15; miR-21 reporter: 3%; Rango release inh: 4%; Rango complex inh: 0.0%

Results for CC(C)(C)c1ccc(-n2ncc3c2CCCC3NC(=O)CN2CCOC2=O)cc1 (stereo unspecified) ?
miR-21 reporter: 6%; Rango release inh: -2%; Rango complex inh: -2.5%

Results for Cc1cc(NC(=O)CCSc2nc(-c3ccco3)cc(C(F)(F)F)n2)no1 ?
GLA inh pH 4.5: -9; miR-21 reporter: -1%; Rango release inh: -4%; Rango complex inh: -2.3%

Later entries.
What do the screens show for `CCc1nnc(NC(=O)CSc2nnc(-c3ccoc3C)n2-c2ccc(C)cc2)s1`?
GLA inh pH 4.5: -7; miR-21 reporter: 1%; Rango release inh: -3%; Rango complex inh: -1.0%

How did COc1ccc(C2(c3ccc(OC)cc3)NC(=O)N(Cn3nnc4ccccc4c3=O)C2=O)cc1 do in these assays?
GLA inh pH 4.5: -6; miR-21 reporter: -7%; Rango release inh: 2%; Rango complex inh: -5.8%

How did CC(C)(C)OC(=O)N1CCC[C@H]1C(=O)N/N=C/c1cccc2nccnc12 do in these assays?
GLA inh pH 4.5: -22; miR-21 reporter: -5%; Rango release inh: 7%; Rango complex inh: -4.6%

How did Cc1ccc(-n2c(N)c(C(=O)NCc3cccnc3)sc2=S)cc1 do in these assays?
GLA inh pH 4.5: -2; miR-21 reporter: 1%; Rango release inh: -3%; Rango complex inh: 1.7%

How did CCn1c(/C=C/c2ccc([N+](=O)[O-])o2)nc2ccccc2c1=O do in these assays?
GLA inh pH 4.5: 2; miR-21 reporter: inconclusive; Rango release inh: inconclusive; Rango complex inh: inconclusive

How did N#C/C(=C\c1ccccc1)C(=O)Nc1cc(S(=O)(=O)N2CCOCC2)ccc1N1CCCC1 do in these assays?
GLA inh pH 4.5: -7; miR-21 reporter: -1%; Rango release inh: 1%; Rango complex inh: -1.3%

How did CCOC(=O)C1CCC(CNCc2ccccc2C)CC1 (stereo unspecified) do in these assays?
GLA inh pH 4.5: -2[21.1 µM]; miR-21 reporter: -3%; Rango release inh: -14%; Rango complex inh: -2.6%

What do the screens show for `Fc1ccccc1Cc1noc(CN2CCCC(CN3CCOCC3)C2)n1` (stereo unspecified)?
GLA inh pH 4.5: -3; miR-21 reporter: -5%; Rango release inh: -1%; Rango complex inh: 2.3%

How did C=CCNC(=O)c1cnc(-c2ccccc2)nc1-c1ccccc1 do in these assays?
miR-21 reporter: -5%; Rango release inh: -3%; Rango complex inh: -0.5%

How did CCC1(C)CC(c2csc(N)n2)CCO1 (stereo unspecified) do in these assays?
GLA inh pH 4.5: 9; miR-21 reporter: -5%; Rango release inh: 2%; Rango complex inh: 0.6%

Fetched one by one from the entries so far, 3 records:
How did Cc1ccc(-n2c(N)c(C(=O)NCc3cccnc3)sc2=S)cc1 do in these assays?
GLA inh pH 4.5: -2; miR-21 reporter: 1%; Rango release inh: -3%; Rango complex inh: 1.7%

How did C=CCNC(=O)c1cnc(-c2ccccc2)nc1-c1ccccc1 do in these assays?
miR-21 reporter: -5%; Rango release inh: -3%; Rango complex inh: -0.5%

How did CCC1(C)CC(c2csc(N)n2)CCO1 (stereo unspecified) do in these assays?
GLA inh pH 4.5: 9; miR-21 reporter: -5%; Rango release inh: 2%; Rango complex inh: 0.6%

Additional entries follow:
Results for C#CCNC(=O)c1cccn1-c1ncc(C(F)(F)F)cc1Cl ?
GLA inh pH 4.5: 1; miR-21 reporter: 0%; Rango release inh: 0%; Rango complex inh: -0.1%

How did CCCc1n[nH]c(=S)n1Cc1ccco1 do in these assays?
GLA inh pH 4.5: 8; miR-21 reporter: -3%; Rango release inh: -1%; Rango complex inh: 1.0%

Results for COc1ccc(-c2cc(C(=O)N3CC4(C)CC3CC(C)(C)C4)no2)cc1OC (stereo unspecified) ?
GLA inh pH 4.5: -6; miR-21 reporter: -4%; Rango release inh: 6%; Rango complex inh: 0.4%

Results for CC(=O)Nc1ccc(/C(C)=N/NC(=O)C2CC2c2ccccc2)cc1 (stereo unspecified) ?
GLA inh pH 4.5: 17; miR-21 reporter: -11%; Rango release inh: 8%; Rango complex inh: -3.8%

What do the screens show for `CCN(CC)C1CCN(C(=O)CCn2nnnc2CN2CCOCC2)C1` (stereo unspecified)?
miR-21 reporter: -8%; Rango release inh: 1%; Rango complex inh: -1.5%

What do the screens show for `CN(Cc1c(F)cccc1Cl)C(=O)c1ccc(NS(=O)(=O)c2ccc3[nH]c(=O)[nH]c3c2)cc1`?
Rango release inh: 13%; Rango complex inh: 1.1%

Results for O=C(COC(=O)c1ccc(OC(F)F)cc1)Nc1cccc(S(=O)(=O)NC2=NCCC2)c1 ?
Rango release inh: 0%; Rango complex inh: 0.1%

How did O=C(Nc1ccc(Cl)c(S(=O)(=O)N2CCOCC2)c1)C1CCC1 do in these assays?
Rango release inh: -9%; Rango complex inh: 3.7%

What do the screens show for `CCN(CC)CCNC(=O)C1c2ccccc2Oc2ccccc21`?
miR-21 reporter: -2%; Rango release inh: 2%; Rango complex inh: -0.6%

Results for CCCCn1nc2cc(C(=O)NCc3ccc4c(c3)OCO4)ccc2c1OCC ?
GLA inh pH 4.5: 4; miR-21 reporter: -1%; Rango release inh: 1%; Rango complex inh: -1.5%

What do the screens show for `O=c1c(O)cccc2cc(O)c(O)c(O)c12`?
GLA inh pH 4.5: -9&-7; miR-21 reporter: 6%; Rango release inh: -21%; Rango complex inh: inconclusive

What do the screens show for `CCN1CCN(C(=S)c2ccc(OCC(=O)Nc3ccc(OC)cc3)cc2)CC1`?
Rango release inh: -9%; Rango complex inh: 5.0%

Results for O=C(CSc1nc(-c2ccccc2)cs1)Nc1ccccc1[N+](=O)[O-] ?
GLA inh pH 4.5: 11; miR-21 reporter: -10%; Rango release inh: 1%; Rango complex inh: 0.0%

Not all compounds are listed; the hit share may differ from the screen's.
